Assay outcomes deposited in PubChem by several laboratories.
MT1-MMP reporter = MT1-MMP gene expression reporter suppression – cell-based, luciferase reporter, luminescence (AID 618). 87,000 compounds, 0.62% hits. MT1-MMP promoter luciferase reporter cells, luminescence. calls from a first round at 10 µM; hits with a dose series show EC50 in µM;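 active = over half of the reporter light lost at 10 µM or EC50 under 50 µM; inactive = the rest and hits that failed the dose series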;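 note: actives suppress MT1-MMP promoter-driven transcription so potencies describe inhibitors; HT1080 fibrosarcoma cells; overnight exposure; toxic or luciferase-blocking compounds were not removed from the actives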
WNV NS2B-NS3 inh = blocks West Nile virus NS2B-NS3 protease activity | WNV NS2B-NS3 protease, fluorogenic substrate Ex360/Em465; stronger effect = lower value | 65,000 compounds, 0.18% hits | z-score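 (tested at a level between 10 and 100 µM)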;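 active = z-score at -3 or under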;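 note: score is relative to mean and spread of the compound wells of a plate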
Target sequence (P06935 1371-1501 limits assumed): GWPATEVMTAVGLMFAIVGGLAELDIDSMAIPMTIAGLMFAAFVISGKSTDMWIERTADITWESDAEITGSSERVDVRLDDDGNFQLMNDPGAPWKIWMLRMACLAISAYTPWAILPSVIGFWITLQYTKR
Target sequence (P06935 1502-1679 limits assumed): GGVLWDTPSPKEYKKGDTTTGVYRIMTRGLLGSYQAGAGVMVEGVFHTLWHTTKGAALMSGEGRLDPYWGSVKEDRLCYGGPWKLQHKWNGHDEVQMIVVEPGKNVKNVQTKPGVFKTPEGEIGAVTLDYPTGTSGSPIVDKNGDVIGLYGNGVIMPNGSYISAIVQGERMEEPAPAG
Hsc70 ATP site = small molecules displacing fluorescent ligand from Hsc70 – biochemical, fluorescence polarization, primary screen (AID 568). Hsc70 fluorescence polarization, probe displacement; higher % means a stronger effect; strong numbers were not always called active. 83,000 tested, under 10 active. displacement, % at 20 µM; hits with a dose series show IC50 in µM;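 active = displacement above 50% without optical interference and an IC50 on retest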;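 note: ATPase domain with a fluorescein-tagged ATP probe; 0% = vehicle and 100% = excess ADP; read after one hour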
Active calls of the source: *; i = inactive; . = no result given. This is a subset (hit frequency here may not be typical).

Below each SMILES: MT1-MMP reporter, WNV NS2B-NS3 inh, Hsc70 ATP site
COC(=O)c1ccccc1NC(=O)c1c(O)c2cccc3c2n(c1=O)CCC3
 : i, 0.44, -2.9%
Cc1ccc(N2C(=O)[C@@H]3[C@H](C2=O)C2c4ccccc4C=CN2[C@@H]3C(=O)c2ccco2)cc1 (stereo partly specified)
 : i, -0.05, 32%
CCC(CO)N=CC1=C(O)C(C(=O)c2ccccc2)CCC1=O (stereo unspecified)
 : i, -0.67, -0.8%
C(=N\n1cnnc1)/c1cccn1-c1ccccc1
 : i, ., 1.7%
O=C(CN1CCOCC1)OCCCc1ccccc1
 : i, 0.21, -11%
CCCOc1ccccc1NC(=O)c1c(-c2ccccc2)noc1C
 : i, -0.01, 2.9%
Cc1ccc(Oc2cc(-n3nc(C)cc3C)ncn2)cc1
 : i, ., 0.7%
O=S(=O)(Nc1ccccc1N1CCOCC1)c1ccc(Cl)s1
 : i, -0.14, 2.8%
c1ccc(CSC2=NCCCN2)cc1
 : i, ., -0.2%
C/C(O)=C(/N=O)C(=O)Nc1ccccc1
 : i, 1.3, -6.8%
O=S(=O)(NC1CC1)c1ccc(S(=O)(=O)N2CCCC(c3nc(-c4cccnc4)no3)C2)cc1 (stereo unspecified)
 : i, 0.31, 2.8%
O=C(O)c1cc(Cl)c2ccccc2c1O
 : i, 0.26, 5.7%
O=C(OCc1nc2ccccc2s1)C1CCN(C2=NS(=O)(=O)c3ccccc32)CC1
 : i, -0.04, -4.7%
O=C(c1ccccc1F)N1CCN(S(=O)(=O)c2ccc3c(c2)OCCO3)CC1
 : i, -0.56, 7.3%
CCCCOc1ccc(NC(=O)Cn2c(=O)ccc3c(C)cc(C)nc32)cc1
 : i, -0.23, -6.1%
CN(C)C/C(Cl)=C(\Cl)c1ccccc1
 : i, 0.49, 0.2%
CCn1c(SCC(=O)Nc2ccc3c(c2)OCO3)nnc1-c1ccccc1O
 : i, 0.22, 4.4%
O=C(O)CCCNS(=O)(=O)c1ccccc1
 : i, ., -3.5%
CCOC(=O)C1CCN(c2c(NCCN3CCCCC3C)c(=O)c2=O)CC1 (stereo unspecified)
 : i, 0.57, 0.1%
Cc1cc(=O)[nH]c(SCCOc2ccc(OC(C)C)cc2)n1
 : i, -1.1, -7.1%
CC(=O)Nc1ccc(S(=O)(=O)n2nc(-c3ccc(C)cc3)nc2N)cc1
 : i, -1.1, 5.0%
COc1ccc(CNc2ccc(S(N)(=O)=O)cc2)c(OC)c1OC
 : i, -0.92, 1.2%
CC(C)NS(=O)(=O)c1ccc(CCC(=O)O)cc1
 : i, -0.92, -4.5%
CN1CCN(C(=O)c2ccc(N(Cc3ccc(Cl)cc3)S(C)(=O)=O)cc2)CC1
 : i, 2.2, -0.1%
CCCn1c(N)c(C(=O)CSc2nc3ccccc3n2CCC#N)c(=O)n(C)c1=O
 : i, 1, 4.1%
COc1ccc(CC(=O)Nc2nc(C)cs2)cc1OC
 : i, -0.48, -2.8%
Cc1nc(SC2CC(=O)N(c3cc(Cl)cc(Cl)c3)C2=O)nc2c1CCCC2 (stereo unspecified)
 : i, ., -0.4%
CCCCc1nccn1CCn1ccnc1CCCC
 : i, 0.88, 3.1%
CSCCC(NC(=O)c1ccco1)C(=O)O (stereo unspecified)
 : i, 0.93, 5.8%
Cn1c(C(=O)Nc2ccc3c(c2)OCCO3)cc2c(=O)n(C)c3ccccc3c21
 : i, 2, 3.9%

One compound at a time (already shown):
Shown for `O=S(=O)(Nc1ccccc1N1CCOCC1)c1ccc(Cl)s1` : MT1-MMP reporter = i; WNV NS2B-NS3 inh = -0.14; Hsc70 ATP site = 2.8%
Shown for `CCCCc1nccn1CCn1ccnc1CCCC` : MT1-MMP reporter = i; WNV NS2B-NS3 inh = 0.88; Hsc70 ATP site = 3.1%

Following part.
Below each SMILES: MT1-MMP reporter, WNV NS2B-NS3 inh, Hsc70 ATP site
Cc1ccc(NC(=O)CN2CCCCCC2)c(Br)c1
 : i, 0.47, 0.7%
CCOC(=O)c1c(NC(=O)Cn2nnc(-c3ccc(Cl)cc3)n2)sc(C)c1C
 : i, ., -4.2%
Cn1c(SCC(=O)Nc2ccc3c(c2)OCO3)nnc1-c1cnccn1
 : i, -0.53, 1.9%
CCC(C)OC(=O)C1=C(C)O[C@]23OC(N)=C(C#N)[C@]12C(=O)c1ccccc13 (stereo partly specified)
 : i, ., -0.8%
CCOC(=O)N1N=C(CC)CC1(O)C(F)(F)F (stereo unspecified)
 : i, ., -1.2%
CC(=O)N1CCN(Cc2nc3cc(NS(C)(=O)=O)ccc3n2C)CC1
 : i, -1.1, 2.8%
COC(=O)[C@@H](NC(=O)NCc1cccc(OC)c1)C(C)C
 : i, 0.33, -5.1%
N=c1oc2ccccc2cc1-c1nc2ccccc2c(=O)[nH]1
 : i, -0.75, 1.6%
COc1ccc(NC(=O)CN2CCN(c3ccc(F)cc3)CC2)cc1Cl
 : i, -0.75, -2.3%
O=C(CSc1nnc(COc2ccccc2F)n1-c1ccccc1)NCc1ccco1
 : i, ., -5.2%
Cc1c(NC(=O)NC(C)N2C(=O)C3C4C=CC(C4)C3C2=O)c(=O)n(-c2ccccc2)n1C (stereo unspecified)
 : i, -0.71, -4.9%
CCC(=O)Nc1cccc(-n2nnnc2SCC(=O)NCc2ccco2)c1
 : i, -0.97, -1.6%
Cc1cc(C(=O)NC2=NCCS2)cs1
 : i, 0.52, -0.5%
COc1ccc(CN2CCn3ncc(C(=O)Nc4ccc(Cl)cc4Cl)c3C2=O)cc1
 : i, ., 1.5%
CCCCn1c(O)c(C(CC)=Nc2ccc3c(c2)CCC3)c(=O)[nH]c1=O
 : i, 0.32, -3.7%
CCOC(=O)c1c(-c2ccc(C)o2)csc1NC(=O)CSc1nncs1
 : i, -0.12, -1.0%
COc1ccc(N=C2SC(CC(=O)Nc3ccccc3)C(=O)N2CC2CCCO2)cc1 (stereo unspecified)
 : i, -0.68, 0.5%
O=C(O)C1CCCCC1C(=O)NCCc1ccncc1 (stereo unspecified)
 : i, -1.9, -5.2%
Cc1nc2sc(C(c3ccco3)N3CCOCC3)c(O)n2n1 (stereo unspecified)
 : i, 0.48, -4.6%
COC(=O)C(O)(CC(=O)Nc1cc(OC)c(OC)c(OC)c1)C(F)(F)F (stereo unspecified)
 : i, ., 1.6%
CCc1nnc(NC(=O)c2ccc(-c3ccc(Cl)cc3)o2)s1
 : i, ., -7.9%
Cc1cc2ncn(C(=O)N3CCC(C)CC3)c2cc1C
 : i, ., -4.5%
N#Cc1cc(Sc2ccccn2)c(Sc2ccccn2)cc1C#N
 : i, -1.6, 5.1%
Cc1ccccc1NC1=NC(=S)N(c2ccccc2)C12CCOC(C)(C)C2 (stereo unspecified)
 : i, ., 2.6%
CC(C)(C)NC(=O)NC(=O)CSc1nnc2ccccn12
 : i, ., 3.6%
O=C(CSc1nnc(-c2ccncc2)n1Cc1ccco1)c1ccc(Cl)cc1
 : i, 2.1, 2.9%
CSC1=NCCN1C(=O)c1c(-c2ccccc2Cl)noc1C
 : i, -0.09, 2.3%
CN1CCN(c2nc3ccccc3nc2C(C#N)C(=O)OC2CCCCC2)CC1 (stereo unspecified)
 : i, -0.59, 0.8%
COCCNC(=O)Cn1cc2c(n1)CCC(C)C2 (stereo unspecified)
 : i, -0.67, -1.4%
COc1ccc(Br)cc1CNC(=O)C1CCN(S(=O)(=O)N2CCCCC2)CC1
 : i, 0.04, 2.2%

Two of the compounds above, as comma-separated lines:
SMILES,MT1-MMP reporter,WNV NS2B-NS3 inh,Hsc70 ATP site
Cc1cc(C(=O)NC2=NCCS2)cs1,i,0.52,-0.5%
N=c1oc2ccccc2cc1-c1nc2ccccc2c(=O)[nH]1,i,-0.75,1.6%

New compounds follow:
Below each SMILES: MT1-MMP reporter, WNV NS2B-NS3 inh, Hsc70 ATP site
Cn1c(-c2ccc(F)cc2)cnc1SCC(=O)N1CCCCC1
 : i, 0.26, 6.4%
CC(C)(C)NC(=O)Cn1c(=O)oc2cc(S(=O)(=O)N3CCc4ccccc43)ccc21
 : i, -0.36, 1.8%
N#Cc1ccccc1NC(=O)COC(=O)CSc1nc2ccccc2o1
 : i, 1.2, 1.6%
Cc1ccc(S(=O)(=O)/N=C2/C=C(C3C(=O)CC(C)(C)CC3=O)C(=O)c3ccccc32)cc1
 : i, ., 4.0%
Cc1nn(CC(=O)O)c2ccccc12
 : i, 0.35, 0.9%
Cc1ccc(OCC(=O)n2nc(C)cc2C)c(C)c1
 : i, ., 1.7%
CCOc1ccc(NC2C=CS(=O)(=O)C2)cc1 (stereo unspecified)
 : i, ., 2.5%
CC(CCc1ccccc1)NC(=O)C1CCCN(c2nnc(-n3cccc3)s2)C1 (stereo unspecified)
 : i, -0.65, 3.7%
COc1ccc(C=NCCC2(O)CC(C)N(C)CC2C)cc1 (stereo unspecified)
 : i, -0.35, -1.7%
c1cc(-c2nnc(-c3ccncc3)o2)ccn1
 : i, 0.48, 4.3%
COCCN(CCOC)S(=O)(=O)c1ccc(C(=O)Nc2nnc(C3CC3)o2)cc1
 : i, -0.48, -3.5%
COc1cc(C(c2c(C)[nH][nH]c2=O)c2c(C)[nH][nH]c2=O)ccc1OS(=O)(=O)c1ccccc1
 : i, ., 2.6%
O=C(CCN1C(=O)C2C3C=CC(C3)C2C1=O)N1CC(=O)N(CCc2ccccc2)C(=O)C1 (stereo unspecified)
 : i, 0.3, -4.4%
Cc1ccccc1-c1nc(CS(=O)(=O)CC(=O)N2CCc3ccccc32)c(C)o1
 : i, -1.3, 1.1%
COc1ccccc1NC(=O)CN1CCN(c2ccccc2F)CC1
 : i, -0.49, 1.9%
CCCC(=O)Nc1nc2c(OC)ccc(OC)c2s1
 : i, -0.65, -4.1%
CCOC(=O)N1CCC(Nc2cccc(SC)c2)CC1
 : i, -1.3, 3.9%
Cc1ccc2nc(NC3=NCN(CCc4ccccc4)CN3)nc(C)c2c1
 : i, -1.7, -2.2%
CCN(CC(=O)Nc1ccc2c(c1)OCCO2)C(=O)C1CCCCC1
 : i, -0.03, -3.8%
O=C(c1cnn2c1NC(c1ccco1)CC2C(F)(F)F)N1CCN(c2cccc(Cl)c2)CC1 (stereo unspecified)
 : i, -0.54, -4.0%
Oc1c(/C=N/c2ncn[nH]2)ccc2ccccc12
 : i, -0.49, 5.1%
CNC(=O)CSc1nnc(-c2ccncc2)n1Cc1ccccc1
 : i, 0.55, -2.2%
Cc1ccc(S(=O)(=O)NCC(=O)N(CC(=O)NC2CCCCC2)CC2CCCO2)cc1 (stereo unspecified)
 : i, ., 7.0%
N#CC1(c2nc3ccccc3[nH]2)CC1c1ccc2c(c1)OCO2 (stereo unspecified)
 : i, 1.1, 4.7%
COc1ccc(C(=O)N(CC(=O)NC(C)(C)C)c2ccc3c(c2)OCCO3)cc1OC
 : i, -1, -2.8%
COc1ccc(C2(CNC(=O)CCC(=O)O)CCCC2)cc1
 : i, 0.0097, 1.3%
CCCCN(C)c1nc(-c2ccco2)c2c(c1C#N)CC(C)(C)OC2
 : i, 1, 1.8%
CC(=O)c1ccc(N2CCN(C(=O)COc3ccc(F)cc3)CC2)c(F)c1
 : i, -0.74, -3.5%
CC1CCCN(Cc2nc3c(c(=O)n(C)c(=O)n3C)n2CC(N)=O)C1 (stereo unspecified)
 : i, 2.7, -3.2%
c1ccc(CN2CCN(c3nc(-c4ccccn4)nc4ccccc34)CC2)cc1
 : i, -0.41, -4.6%
COC(=O)c1nnn(-c2nonc2N)c1CSc1nc2ccccc2s1
 : i, -0.86, -0.3%
O=C(CSc1nnc(-c2ccc(Cl)cc2)n1Cc1ccco1)c1cccs1
 : i, 0.87, -5.3%
O=C(Nc1ccc(O)cc1)C1CCCO1 (stereo unspecified)
 : i, ., -2.8%
CCOc1cc(/C=N/NC(=O)Cn2nc([N+](=O)[O-])cc2C)cc(Br)c1OCc1ccccc1F
 : i, ., -0.3%
c1coc(-c2nnc(NC3=NCCC3)o2)c1
 : i, 0.37, -3.7%
COc1ccc(/C(O)=C2/C(=O)C(=O)N(CCCN(C)C)C2c2cccc(Cl)c2)cc1OC (stereo unspecified)
 : i, -0.64, -5.3%
O=C(CN1CCCN(S(=O)(=O)c2ccc(Br)s2)CC1)Nc1ccc(Cl)cc1
 : i, ., -3.3%
CN=C(Nc1cc(C)nn1CCC#N)c1ccccc1F
 : i, 0.62, 2.8%
Cc1nc2scc(-c3cccs3)c2c(=O)n1-n1cccc1
 : i, -0.68, 1.4%
Cc1cccc2cc(CN(Cc3ccco3)C(c3nnnn3CCc3ccccc3)C(C)C)c(=O)[nH]c12 (stereo unspecified)
 : i, -0.57, 5.0%
COc1cccc(NC2C=CS(=O)(=O)C2)c1 (stereo unspecified)
 : i, ., -2.4%
O=C(Cn1ncn2c(cc3ccccc32)c1=O)NCc1ccco1
 : i, -0.84, 0.9%
Cc1nc2sccn2c(=O)c1CCN1CCC(=C(c2ccc(F)cc2)c2ccc(F)cc2)CC1
 : i, -0.69, 1.0%
Cc1oc(CSCC2CCCO2)cc1C(=O)O (stereo unspecified)
 : i, -0.91, -0.3%
Nc1nnc(SCCOc2cccc(Br)c2)s1
 : i, ., 0.7%
CCOC(=O)c1c(-c2ccccc2)oc2ccc(OC(C)=O)cc12
 : i, ., 1.5%

Some values from the list:
Under Hsc70 ATP site, `O=C(Nc1ccc(O)cc1)C1CCCO1` (stereo unspecified) shows -2.8%
Under Hsc70 ATP site, `Cc1nc2scc(-c3cccs3)c2c(=O)n1-n1cccc1` shows 1.4%
